High-throughput results from PubChem BioAssay.
Yeast UUG start: modulators of yeast start codon fidelity, primary screen, whole organism, S. cerevisiae, single point, plate reader | S. cerevisiae UUG-firefly luciferase reporter, luminescence/redox ratio | activity score, % at 18.7 µM | hit rate 0.13% among 350,000 | AID 602363, 2012;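 active = replicate mean at a twofold rise or more, about +100% in these data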;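 also: firefly luciferase made from a UUG start codon reports start codon fidelity; reporter light over untreated wells divided by growth signal over untreated wells; some hits fall short of that in this replicate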
PABP polyA inh: PABP poly(A) RNA binding inhibitors, primary screen, biochemical, fluorescence polarization, uHTS; hit rate 1% among 290,000; inhibition, % at 35 µM;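 active = 50% or more with normal probe brightness, or confirmed in later tests; inconclusive = above 50% with abnormal brightness, or retests that disagree; inactive = below 50% or failed in later tests; about a fifth of its hits are not listed in these tables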;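 also: calls also rest on retests at 20 µM and on dose response follow-up; controls were probe without protein and protein plus probe with vehicle; some compounds called inactive have numbers as strong as hits; many hits fall short of the cut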
Target sequence (P11940 whole entry, looked up): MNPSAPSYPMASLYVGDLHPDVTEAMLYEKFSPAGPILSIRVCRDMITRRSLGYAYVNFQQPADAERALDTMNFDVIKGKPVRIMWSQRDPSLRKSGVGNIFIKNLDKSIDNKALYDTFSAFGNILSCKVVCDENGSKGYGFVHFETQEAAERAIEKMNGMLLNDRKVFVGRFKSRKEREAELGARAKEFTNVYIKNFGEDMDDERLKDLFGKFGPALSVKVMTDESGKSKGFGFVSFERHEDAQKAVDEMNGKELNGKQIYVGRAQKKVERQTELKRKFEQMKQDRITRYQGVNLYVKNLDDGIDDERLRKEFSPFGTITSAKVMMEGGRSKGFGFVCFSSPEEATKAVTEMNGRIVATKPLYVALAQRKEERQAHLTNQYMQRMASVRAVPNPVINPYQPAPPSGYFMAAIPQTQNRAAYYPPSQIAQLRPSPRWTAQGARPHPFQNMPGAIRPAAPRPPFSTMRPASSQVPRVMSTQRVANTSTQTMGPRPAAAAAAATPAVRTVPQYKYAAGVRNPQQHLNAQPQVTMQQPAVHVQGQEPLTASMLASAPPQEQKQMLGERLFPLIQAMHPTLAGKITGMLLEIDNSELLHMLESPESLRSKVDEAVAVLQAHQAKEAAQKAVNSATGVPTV
eIF4H inh: human eIF4H binding inhibitors, primary screen, translation initiation inhibitor project, biochemical, uHTS, fluorescence polarization; Eukaryotic translation initiation factor 4H (Homo sapiens), Q15056; eIF4H fluorescence polarization binding assay; inhibition, % at 35 µM; hit rate 0.94% among 290,000;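 active = 50% or more with normal probe brightness, or confirmed in later tests; inconclusive = above 50% with abnormal brightness, or retests that disagree; inactive = below 50% or failed in later tests; about a fifth of its hits are not listed in these tables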;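 also: calls also rest on retests at 20 µM and on dose response follow-up; 0% = protein and probe with vehicle and 100% = probe without protein; strong numbers were not always called active; many hits fall short of the cut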
HIV Env fusion: inhibitors of HIV-1 Env-driven cell-cell fusion, primary screen, HeLa-JRFL effector, CEM21 target cells, luciferase | AID 651610, 2012 | inhibition, % at 12.3 µM | hit rate 1.1% among 360,000;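 active = mean replicate inhibition score of at least 50 and every replicate individually at or above 50; inconclusive = only one of the two criteria met; inactive = mean below 50 and not all replicates reaching 50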;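 also: 0% = plate neutral controls and 100% = maraviroc near 300 nM; one replicate is shown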
MT1-MMP act inh: blockers of MT1-MMP proenzyme processing, primary screen, HT1080 RFP-PRO-GFP cells, GFP/RFP fluorescence | Matrix metalloproteinase-14 (Homo sapiens), P50281 | GFP/RFP ratio fluorescence, overnight; percent of plate control window, DMSO zero | GFP/RFP ratio change, % at 20 µM | hit rate 0.061% among 360,000 | AID 651647, 2012;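 active = GFP/RFP ratio change of at least 30% with cell ATP level not reduced by more than half and red fluorescence within 50% of control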; also: strong numbers were not always called active
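system = RFP-PRO-GFP reporter HT1080 cells | dosing = 20 µM single dose, 1% DMSO | timing = overnight cell settling, then overnight compound exposure, 37 °C, 5% CO2 | read-out basis = GFP/RFP fluorescence ratio | controls = DMSO and RFP-L50D-GFP cell wells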
Rce1 inh: yeast Rce1p protease inhibitors, primary screen, biochemical, fluorescence, cell-free homogeneous | calls only | AID 2563, 2010 | CAAX prenyl protease 2 (Saccharomyces cerevisiae (strain ATCC 204508 / S288c)), Q03530 | hit rate 0.27% among 290,000 | yeast membranes, quenched prenylated peptide cleavage fluorescence;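 active = fall in fluorescence gain of 50% or more versus controls, with final raw signal at or below 3038400; inconclusive = same 50% fall but final raw signal above 3038400; inactive = fall in fluorescence gain under 50%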;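 also: plate controls were neutral control wells for no effect and wells lacking membranes for full effect; tested at 10 µM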
Target sequence (Q03530 whole entry, looked up): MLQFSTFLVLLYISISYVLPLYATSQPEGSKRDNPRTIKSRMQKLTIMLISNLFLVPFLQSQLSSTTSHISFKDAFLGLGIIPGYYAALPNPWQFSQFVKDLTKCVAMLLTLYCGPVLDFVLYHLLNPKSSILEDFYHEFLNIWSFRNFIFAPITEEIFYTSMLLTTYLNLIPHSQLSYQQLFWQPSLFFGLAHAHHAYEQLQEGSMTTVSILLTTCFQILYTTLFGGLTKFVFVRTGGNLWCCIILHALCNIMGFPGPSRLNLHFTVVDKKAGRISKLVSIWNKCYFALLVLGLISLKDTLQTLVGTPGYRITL
CSC inhib: cancer stem cell viability inhibitors, primary screen, luminescence. AID 2717, 2010. cancer stem cell-like cells viability. hit rate 1.1% among 300,000. inhibition, % at 7.5 µM;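 active = mean at 75% or more and at least half the replicates too; inconclusive = mean and replicates disagree; tested in HMLE shEcad cells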;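 also: 0% = median of negative and 100% = median of positive control wells; the first replicate is given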
eIF4H inh retest: second read-out of eIF4H inh, no call of its own (marks repeat the call); inhibition, %; compound at 20 µM; confirmation average;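 mean of two retest wells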
PABP polyA inh retest: further read-out of PABP polyA inh, marked with its call; inhibition, %; compound at 20 µM; confirmation repeats;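 mean of two retest wells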
MT1-MMP act inh RFP: further read-out of MT1-MMP act inh, marked with its call; RFP signal change, %; measured here: RFP expression control read;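 0 = vehicle wells; hits needed this value within 50% of zero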
* hit, by the source's call; i = inactive; ? = inconclusive; / = not tested or not shown.

SMILES	Yeast UUG start	PABP polyA inh	eIF4H inh	HIV Env fusion	MT1-MMP act inh	MT1-MMP act inh RFP	Rce1 inh	CSC inhib	others
Cc1ccsc1C1C(C#N)=C(N)N(N(C)C)C2=C1C(=O)CC(C)(C)C2 (centres undefined)	-13	-6	-2	8	-1	-3	i	-1
CCCn1c(=N)n(CC(=O)O)c2ccccc21	-18	/	/	-81	5	1	i	-9
COC(/C=C/Nc1ccc(Br)cc1)=C(C#N)C#N	-3	-4	-8	/	1	5	i	/
CCC(=O)NC1=C(Cl)C(=O)C(NC(=O)CC)=C(Cl)C1=O	-13	8	2	-71	3	2	/	/
CCN(CC)S(=O)(=O)c1ccc(O)c(C(=O)OCC(=O)Nc2ccc(OC(F)(F)F)cc2)c1	/	-2	9	18	-3	-4	i	12
Cc1cccn2cc(CCNS(=O)(=O)c3cccc([N+](=O)[O-])c3)nc12	-11	-7	5	10	3	4	i	-22
COc1ccc(C2=NN(C(C)=O)C(c3cccs3)C2)cc1OC (centres undefined)	1	9	0	2	-2	-2	i	/
Cc1ccccc1-n1c(C)nnc1SCC(=O)NNC(=O)c1ccccc1	/	2	0	2	1	2	i	1
CCn1c(SCC(=O)O)nnc1-c1ccccc1	-8	11	52	-12	2	1	i	-7	eIF4H inh retest=-5;PABP polyA inh retest=1
Cc1ccc2[nH]c(O)c(N=Nc3nc4ccccc4s3)c2c1	-14	21	?	11	-44	1	i	28
COc1ccccc1-c1sc2ccccc2c1-c1ccc2c(c1)OCCO2	-18	/	/	11	-3	3	/	6
O=C(CNC(=O)c1ccco1)NCC(=O)OCc1ccc(Cl)cc1Cl	-14	7	3	7	1	2	i	-4

Four compounds drawn at random from those above:
SMILES	Yeast UUG start	PABP polyA inh	eIF4H inh	HIV Env fusion	MT1-MMP act inh	MT1-MMP act inh RFP	Rce1 inh	CSC inhib	others
Cc1cccn2cc(CCNS(=O)(=O)c3cccc([N+](=O)[O-])c3)nc12	-11	-7	5	10	3	4	i	-22
O=C(CNC(=O)c1ccco1)NCC(=O)OCc1ccc(Cl)cc1Cl	-14	7	3	7	1	2	i	-4
CCn1c(SCC(=O)O)nnc1-c1ccccc1	-8	11	52	-12	2	1	i	-7	eIF4H inh retest=-5;PABP polyA inh retest=1
CCCn1c(=N)n(CC(=O)O)c2ccccc21	-18	/	/	-81	5	1	i	-9

Continuation:
SMILES	Yeast UUG start	PABP polyA inh	eIF4H inh	HIV Env fusion	MT1-MMP act inh	MT1-MMP act inh RFP	Rce1 inh	CSC inhib	others
COc1ccc(N2C(=O)CC(N(CCc3ccccc3)C(=O)/C=C/C(=O)O)C2=O)cc1 (centres undefined)	/	-4	6	12	-4	4	i	0
CC(=O)N(Cc1cc(=O)[nH]c2ccccc12)c1ccc(C)cc1	3	-1	2	/	1	1	i	/
O=C(O)c1ccccc1C(=O)NCc1ccccc1	6	7	2	/	5	6	i	-1
COc1ccc(S(=O)(=O)N2CCN(C(=O)[C@H](Cc3ccccc3)NC(=O)c3ccco3)CC2)cc1	7	/	/	/	-6	-1	/	2
COC(=O)C1CN(Cc2ccccc2)C(=O)C1=O (centres undefined)	-8	/	/	17	-5	-1	/	/
COc1ccc(N2CCN(S(=O)(=O)c3ccc(OC)cc3)CC2)cc1	-14	-2	5	/	2	-4	i	-4
COc1cc(/C=C2/NC(=O)N(Cc3ccccc3F)C2=O)ccc1O	/	2	-13	9	-1	-1	/	10
COc1ccc(CCNC(=O)c2cc(=O)c3ccc(C)cc3o2)cc1OC	-13	-10	-5	-6	2	-13	i	-22
OC(CNCC1(N2CCCCC2)CCCCC1)COc1ccc(Cl)cc1Cl (centres undefined)	/	3	11	-3	3	5	i	4
Cc1ccccc1-n1c(C)cc(/C=N/Nc2ccc([N+](=O)[O-])cn2)c1C	/	27	25	/	-13	-6	i	-9
O=C(c1ccccc1Sc1c(Cl)cccc1[N+](=O)[O-])N1CCOCC1	/	47	-2	-14	7	7	i	7
CC(C)NC(=O)CSc1nnc(-c2ccc(C(C)(C)C)cc2)n1C	-2	5	4	/	1	-3	i	-13
COc1cccc(OCCCOc2ccccc2C(C)C)c1	-9	-5	7	/	1	-4	i	4
Cc1ccc2[nH]c(C(=O)NN=C3CCCCC3)c(-c3ccccc3)c2c1	/	2	0	7	-6	-3	i	30
O=c1c2ccccc2c(-c2ccccc2)nn1Cc1ccc(Cl)cc1	-12	6	-2	/	-9	-10	i	50
CCOC(=O)c1ccc(NC(=O)c2nc[nH]c2C(=O)N(C)Cc2ccccc2)cc1	-14	12	12	10	2	-4	i	/
CN(Cc1ccccc1)C(=O)[C@H]1CCC(=O)N1Cc1ccco1	3	1	4	-87	-4	2	i	/
CN(Cc1c(C(=O)N/N=C/c2ccc(O)cc2)nnn1-c1nonc1N)C1CCCCC1	-2	6	-10	-15	-2	2	i	-1
COc1ccc(CCNC(=O)CN2C(=O)COc3ccc(S(=O)(=O)N4CCOCC4)cc32)cc1OC	-2	6	-2	2	-3	2	i	-1
CCOc1ncccc1C(=O)Nc1ccc2c(c1)OCO2	/	15	-6	-10	2	7	i	-44
COC(=O)Cc1c[nH]c2cccc(OCC(O)CN(Cc3ccccc3)C(C)C)c12 (centres undefined)	-6	6	2	-57	5	4	i	0
O=C(O)c1ccc(NC2=C(Cl)C(=O)c3ccccc3C2=O)cc1	-27	9	-4	-28	-1	-27	i	102*
CN(C(=S)SCc1ccccc1)C1CCS(=O)(=O)C1 (centres undefined)	/	4	-2	14	3	-2	i	1
COc1ccccc1-c1nnc2sc(COc3ccccc3)nn12	-10	3	0	?	6	-1	i	1
COc1ccc(C(=O)NC(=S)NCc2ccco2)cc1OC	-13	7	-7	/	-3	0	i	-13
O=C(O)c1[nH]c2ccc(Cl)cc2c1CC(=O)N1CCN(c2ccccc2)CC1	15	15	8	/	9	11	i	-5
COC(=O)CNC(=O)Cc1c(C)n(C(=O)c2ccc(Cl)cc2)c2ccc(OC)cc12	-21	0	2	2	-1	-2	i	-18
Cn1cccc1C(C#N)(CC#N)c1cccc(F)c1C#N (centres undefined)	/	-5	6	14	-1	1	i	-12
CCOC(=O)C1=C(Nc2cccc(Cl)c2)OCC1=O	1	2	-12	/	1	3	i	2
CCCc1[nH]nc2c1C(Cc1ccccc1)C(C#N)=C(N)O2 (centres undefined)	501*	7	-5	64*	-6	1	i	-10
CC(=O)c1c(C)[nH]c(C(=O)OCC(=O)NCCc2ccc(F)cc2)c1C	-1	4	-5	-37	5	3	i	-2
CCNC(=S)Nc1ccc(Cl)c([N+](=O)[O-])c1	-17	-10	42	10	4	-5	i	13
Cc1ccc(OC(=O)c2sc(Cl)nc2C)cc1C	/	6	2	15	1	4	i	7
CN(Cc1cccc([N+](=O)[O-])c1)Cc1cccc2ccccc12	1	4	-5	-38	-1	-3	i	68
COc1ccccc1C(=O)Oc1ccc(C(C)C)cc1	/	-8	-8	/	4	-1	i	-7
CCc1nc2c(OCc3ccc(F)c(F)c3)cccn2c1N(C)C(=O)c1ccc(OC)cc1	-18	/	/	30	4	1	/	/

A portion of the results above:
SMILES	Yeast UUG start	PABP polyA inh	eIF4H inh	HIV Env fusion	MT1-MMP act inh	MT1-MMP act inh RFP	Rce1 inh	CSC inhib	others
O=C(O)c1[nH]c2ccc(Cl)cc2c1CC(=O)N1CCN(c2ccccc2)CC1	15	15	8	/	9	11	i	-5
COC(=O)CNC(=O)Cc1c(C)n(C(=O)c2ccc(Cl)cc2)c2ccc(OC)cc12	-21	0	2	2	-1	-2	i	-18
Cn1cccc1C(C#N)(CC#N)c1cccc(F)c1C#N (centres undefined)	/	-5	6	14	-1	1	i	-12
CCOC(=O)C1=C(Nc2cccc(Cl)c2)OCC1=O	1	2	-12	/	1	3	i	2
CCCc1[nH]nc2c1C(Cc1ccccc1)C(C#N)=C(N)O2 (centres undefined)	501*	7	-5	64*	-6	1	i	-10

Remaining list, next part:
SMILES	Yeast UUG start	PABP polyA inh	eIF4H inh	HIV Env fusion	MT1-MMP act inh	MT1-MMP act inh RFP	Rce1 inh	CSC inhib	others
C=CCOc1nc(N2CCCC2)nc(N2CCCC2)n1	-8	-5	-19	16	-2	-2	i	8
CCn1cc(CCCC(=O)NCc2cccc(OC)c2)c2ccccc21	-3	6	-3	7	-1	0	i	2
O=C(NC1CCN(c2ncccn2)CC1)c1c(F)cccc1F	-18	4	-1	8	-5	-4	i	-13
O=C(Cc1ccccc1)N1CCN(S(=O)(=O)c2ccc([N+](=O)[O-])cc2)CC1	/	1	-6	8	-3	-1	i	-16
Cc1coc2cc3oc(=O)c(CCC(=O)NCc4ccccn4)c(C)c3cc12	-11	-6	0	/	0	-2	/	-7
CN1/C(=C\C(=O)c2oc3ccccc3c2N)C(C)(C)c2ccccc21	/	15	-2	/	2	-15	i	4
COc1cccc(C(=O)CSc2nnc(-c3cccs3)o2)c1	-12	10	3	-4	-4	0	i	3
CC1(C)CC(=O)C2=C(C1)OC(N)=C(C#N)C2CCc1ccccc1 (centres undefined)	-19	-6	0	/	-2	-1	/	-10
CCOc1ncccc1C(=O)Nc1ccc(F)cc1	3	2	0	5	-3	-3	i	-14
Cc1c(OCC(=O)NC(Cc2ccc(Cl)cc2)C(=O)O)ccc2c1oc(=O)c1ccccc12 (centres undefined)	-21	27	3	/	9	7	i	4
CC(C)[C@H](NC(=O)N1CC(=O)Nc2ccccc21)C(=O)N[C@@H](Cc1c[nH]c2ccccc12)C(=O)O	-10	-3	-5	/	-2	3	i	-8
COc1ccc(CCNC(=O)NC2CCCCC2)cc1OC	-8	-3	-1	14	/	/	i	-7
COc1ccc(CC2(CO)CCN(Cc3cnn(-c4ccccc4OC)c3)CC2)cc1	-12	-10	16	6	-2	1	i	0
COc1ccc(-c2noc(CCC(=O)N3CCN(c4ccc(C(F)(F)F)cc4)CC3)n2)cc1	-15	/	/	9	4	-3	/	/
CCCNC(=O)c1ccc(N2CCC3(CC2)CC(c2cccc(Br)c2)=NO3)c(N)c1	-11	/	/	-9	-1	-8	/	45
CC(C)OCCCN1CN(S(=O)(=O)c2cccs2)c2nc3ccccc3nc21	/	6	0	-15	/	/	i	-1
CCOc1cc(C(=O)Nc2ccc(N3CCN(S(C)(=O)=O)CC3)cc2)cc(OCC)c1OCC	1	-1	-4	/	5	3	i	14
Cc1ccccc1OCC(=O)N(Cc1cccs1)C1CCS(=O)(=O)C1 (centres undefined)	-10	8	-6	11	-2	2	i	-13
N=c1oc2ccccc2cc1C(=O)Nc1cccc(F)c1	-3	3	-6	-41	3	-1	i	0

By substructure, those above containing bromine (two)
SMILES	Yeast UUG start	PABP polyA inh	eIF4H inh	HIV Env fusion	MT1-MMP act inh	MT1-MMP act inh RFP	Rce1 inh	CSC inhib	others
COC(/C=C/Nc1ccc(Br)cc1)=C(C#N)C#N	-3	-4	-8	/	1	5	i	/
CCCNC(=O)c1ccc(N2CCC3(CC2)CC(c2cccc(Br)c2)=NO3)c(N)c1	-11	/	/	-9	-1	-8	/	45
